Vaccinia stage = Vaccinia orthopox stage-specific inhibition | Vaccinia-infected cells, mCherry/Venus stage reporter fluorescence; stronger effect = lower value; some inactives read as strong as hits | activity change (mCherry), % (test concentration not listed) | 89,000 compounds, 0.01% hits | AID 1053133;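 active = mCherry past -33% and 40 or more points under the early reporter, replicates agreeing; inconclusive = past -33% without that gap or agreement; tested in A549 cells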;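 also: scaled between vehicle wells and reference inhibitor wells; 23 nL library stock went into each well; one replicate is shown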
Vaccinia stage Venus = recorded beside Vaccinia stage, whose call it bears; activity change (Venus), %; measured here: Venus reporter, other viral stage;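 negative = less Venus signal; first of two replicates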
Active calls of the source: *; ? = inconclusive; · = no result given; & = joins results of further samples.

SMILES	Vaccinia stage	Vaccinia stage Venus
COCC(=O)Nc1ccc2c(c1)[C@@H]1C[C@H](CC(=O)NCCc3ccccc3)O[C@@H](CO)[C@@H]1O2	1	0
CO[C@@H]1CN(C)C(=O)c2cc(NC(C)=O)ccc2OC[C@H](C)N(C(=O)C2CC2)C[C@H]1C	7	6
CN1C(=O)c2cc(NC(=O)Nc3ccc(Cl)cc3)ccc2OC[C@@H]2O[C@@H](CC(=O)O)CC[C@H]21	-4	-2
Cc1noc(C)c1S(=O)(=O)N1[C@@H]2CNC[C@H]1C2c1ccc(-c2ccccc2)cc1 (stereo partly drawn)	-9	-4
C[C@@H]1CCCCO[C@H](CN(C)C(=O)C2CCCCC2)[C@@H](C)CN([C@@H](C)CO)C(=O)c2cc(NC(=O)Nc3ccc(F)cc3)ccc2O1	-28	-12
C[C@@H]1CCCCO[C@@H](CN(C)C(=O)CCCN(C)C)[C@H](C)CN([C@@H](C)CO)C(=O)c2cc(NC(=O)CCC(F)(F)F)ccc2O1	24	11
C[C@H]1CN([C@@H](C)CO)S(=O)(=O)c2ccc(C#CC3CC3)cc2O[C@H]1CN(C)C(=O)c1ccncc1	20	17
CN1C(=O)c2cc(NC(=O)Nc3ccc(Cl)cc3)ccc2OC[C@H]2O[C@@H](CC(=O)NCCN3CCCCC3)CC[C@@H]21	8	14
C[C@@H]1CN([C@@H](C)CO)C(=O)c2cc(N(C)C)ccc2O[C@@H](C)CCCCO[C@@H]1CN(C)CC1CCCCC1	-18	-16
COc1ccc(C(=O)Nc2ccc3c(c2)C(=O)N(C)[C@@H]2CC[C@H](CC(=O)NCC4CC4)O[C@H]2CO3)cc1	7	2
COCC(=O)N1C[C@@H](C)[C@H](OC)CN(C)C(=O)c2cc(NC(=O)Nc3cccc(F)c3)ccc2OC[C@H]1C	8	21
C[C@H](O)C#Cc1ccc2c(c1)O[C@H](CN(C)Cc1ccccc1)[C@@H](C)CN([C@@H](C)CO)S2(=O)=O	-26	-24
CC(C)NC(=O)Nc1ccc2c(c1)C(=O)N([C@H](C)CO)C[C@@H](C)[C@H](CN(C)S(=O)(=O)c1ccc(Cl)cc1)O2	2	9
C/C=C/c1cnc2c(c1)C(=O)N([C@H](C)CO)C[C@H](C)[C@@H](CN(C)C(=O)NC1CCCC1)O2	8	3
O=C(NCC[C@@H]1CC[C@H](NS(=O)(=O)c2ccc(F)cc2)[C@@H](CO)O1)c1ccc2c(c1)OCO2	-16	0
COc1ccc(C#Cc2ccc3c(c2)[C@@H]2[C@@H](CCN2S(=O)(=O)c2ccccc2C)[C@H](CO)N3C)cc1	18	1
COCC(=O)Nc1ccc2c(c1)[C@H]1C[C@H](CC(=O)N[C@H](C)c3ccccc3)O[C@@H](CO)[C@H]1O2	13	13
CC(=O)NC[C@H]1[C@@H](c2ccc(C#C[C@@H](C)O)cc2)[C@@H](CO)N1Cc1ccccn1	-2	4
COCC(=O)N1C[C@@H](C)[C@H](OC)CN(C)C(=O)c2ccc(NC(=O)NC(C)C)cc2OC[C@@H]1C	7	-2
C[C@H]1CN([C@@H](C)CO)C(=O)c2cc(C#CCN(C)C)cnc2O[C@H]1CN(C)Cc1ccc(F)cc1	12	-3
Cc1ccc(S(=O)(=O)N[C@H]2CC[C@H](CC(=O)O)O[C@@H]2CO)cc1	10	14
C[C@@H]1CN([C@H](C)CO)C(=O)c2cc(NC(=O)Nc3ccccc3)ccc2O[C@@H]1CN(C)S(=O)(=O)c1cccs1	11	17
C[C@H]1CN([C@@H](C)CO)C(=O)CCCn2cc(nn2)CO[C@H]1CN(C)Cc1ccc(C(F)(F)F)cc1	-6	-4
C[C@@H]1CN([C@H](C)CO)C(=O)Cc2cc(NC(=O)NC3CCCCC3)ccc2O[C@H]1CN(C)Cc1ccc(C(=O)O)cc1	20	9
CCCC#Cc1cnc2c(c1)C(=O)N([C@H](C)CO)C[C@@H](C)[C@H](CN(C)C(=O)C1CC1)O2	7	-3
CN1C(=O)c2cc(NC(=O)c3cccc(F)c3)ccc2OC[C@@H]2O[C@H](CC(=O)NCC3CCCCC3)CC[C@@H]21	?	·
COc1cccc(-c2ccc([C@@H]3[C@@H](CO)N(C(=O)c4ccccn4)[C@H]3C#N)cc2)c1	-35	-21
COc1ccc(C(=O)N2C[C@H]3[C@@H](c4ccccc42)[C@@H](CO)N3Cc2ccccc2Cl)cc1	4	8
Cc1cccc(S(=O)(=O)N2C[C@@H](O)COC[C@H]3O[C@@H](CC(=O)Nc4ccccc4)CC[C@@H]32)c1	-17	-10
CC(C)NC(=O)N(C)C[C@H]1OCCCC[C@@H](C)Oc2ccc(NS(=O)(=O)c3cccs3)cc2C(=O)N([C@H](C)CO)C[C@H]1C	13	15
C[C@@H]1CN([C@@H](C)CO)C(=O)c2cccc(NS(=O)(=O)c3cccs3)c2O[C@H]1CN(C)Cc1ccccc1	3	2
COc1ccc(S(=O)(=O)N2CC[C@H]3[C@H](CO)Nc4ccc(C#Cc5cccnc5)cc4[C@H]32)cc1	-14	-10
COc1ccc(NC(=O)N[C@H]2CC[C@@H](CCNC(=O)c3ccccc3F)O[C@@H]2CO)cc1	-4	3
CO[C@H](C(=O)N(C)C[C@H]1OCc2ccccc2-c2ccccc2C(=O)N([C@@H](C)CO)C[C@@H]1C)c1ccccc1	15	5
CC(C)NC(=O)N(C)C[C@@H]1Oc2cc(C#CC(C)(C)O)ccc2S(=O)(=O)N([C@H](C)CO)C[C@@H]1C	23	14
C[C@H]1CN([C@@H](C)CO)C(=O)Cc2cc(NC(=O)Nc3ccc(F)cc3)ccc2O[C@@H]1CN(C)S(=O)(=O)c1ccc(Cl)cc1	8	1
C[C@H]1CN([C@@H](C)CO)S(=O)(=O)c2ccc(/C=C/c3ccccc3)cc2O[C@@H]1CN(C)Cc1cccnc1	-7	-21
C[C@@H]1CN([C@@H](C)CO)C(=O)c2cc(N(C)C)ccc2O[C@@H]1CN(C)Cc1ccc(C(=O)Nc2ccccc2N)cc1	?	·
CN1C[C@@H](O)COC[C@H]2O[C@@H](CC(=O)N3CCN(c4ccccc4)CC3)CC[C@@H]21	15	13
COc1ccc(C#Cc2cnc3c(c2)C(=O)N([C@H](C)CO)C[C@@H](C)[C@@H](CN(C)C(=O)CC2CC2)O3)cc1	-5	-3

Random excerpt: three records from the list, in no set order.
SMILES	Vaccinia stage	Vaccinia stage Venus
C[C@H]1CN([C@@H](C)CO)S(=O)(=O)c2ccc(C#CC3CC3)cc2O[C@H]1CN(C)C(=O)c1ccncc1	20	17
C[C@H](O)C#Cc1ccc2c(c1)O[C@H](CN(C)Cc1ccccc1)[C@@H](C)CN([C@@H](C)CO)S2(=O)=O	-26	-24
Cc1cccc(S(=O)(=O)N2C[C@@H](O)COC[C@H]3O[C@@H](CC(=O)Nc4ccccc4)CC[C@@H]32)c1	-17	-10

Other compounds.
SMILES	Vaccinia stage	Vaccinia stage Venus
COc1cccc(S(=O)(=O)N[C@@H]2CC[C@@H](CCNC(=O)Cc3ccncc3)O[C@@H]2CO)c1	2	6
CCCC(O)C#Cc1cnc2c(c1)C(=O)N([C@H](C)CO)C[C@H](C)[C@H](CN(C)Cc1ccccc1)O2 (stereo partly drawn)	10	-1
COc1ccc2c3c(n(C)c2c1)[C@H](CO)N(C(=O)CC1CC1)CC31CCN(Cc2ccncc2)CC1	-4	-5
C[C@H]1CN([C@@H](C)CO)C(=O)c2cc(-c3ccc(F)cc3)cnc2O[C@@H]1CN(C)Cc1cccnc1	-7	-3
CC(=O)Nc1ccc2c(c1)C(=O)N(C)[C@H]1CC[C@H](CC(=O)Nc3cccc(F)c3)O[C@@H]1CO2	-12	-3
C[C@@H]1CN([C@H](C)CO)C(=O)c2cc(C#Cc3cccnc3)cnc2O[C@@H]1CN(C)Cc1ccccc1	-7	-4
C[C@@H]1CN([C@@H](C)CO)C(=O)c2cc(Br)cnc2O[C@@H]1CN(C)S(=O)(=O)c1ccc(F)cc1	8&9	8&0
CC(=O)N(C)C[C@@H]1Oc2ncc(C3=CCCC3)cc2C(=O)N([C@@H](C)CO)C[C@H]1C	5	2
CN(C)C(=O)C[C@@H]1CC[C@H]2[C@@H](COc3ccc(NC(=O)c4cnccn4)cc3C(=O)N2C)O1	6	10
CO[C@H]1CN(C)C(=O)c2ccc(NS(C)(=O)=O)cc2OC[C@@H](C)N(CC2CCOCC2)C[C@@H]1C	11	-2
C[C@@H]1CN([C@H](C)CO)C(=O)c2cccc(NC(=O)NC3CCCCC3)c2O[C@H]1CN(C)Cc1ccncc1	-6	0
C[C@@H]1CN([C@H](C)CO)C(=O)c2cccc(NC(=O)Nc3ccccc3)c2O[C@H]1CN(C)CC1CC1	6	8
CCS(=O)(=O)N1CC2(CN(C)[C@H](CO)c3c2c2ccc(OC)cc2n3C)C1	13	8
Cc1ccc(S(=O)(=O)Nc2ccc3c(c2)C(=O)N([C@H](C)CO)C[C@@H](C)[C@@H](CN(C)S(=O)(=O)c2cccs2)O3)cc1	-20	-15
C[C@@H]1CCCCO[C@@H](CN(C)Cc2ccccc2)[C@@H](C)CN([C@H](C)CO)C(=O)c2cc(NS(=O)(=O)c3ccc(Cl)cc3)ccc2O1	-28	-16
O=C(C[C@H]1CC[C@H]2[C@@H](COC[C@@H](O)CN2Cc2cccc(Cl)c2)O1)N1CCCCC1	-20	-15
CN(C)C(=O)C[C@@H]1CC[C@H]2[C@@H](COC[C@@H](O)CN2CC2CCCCC2)O1	21	18
C[C@@H]1CN([C@H](C)CO)C(=O)c2cccc(NC(=O)C3CC3)c2O[C@H]1CN(C)Cc1ccc(Cl)c(Cl)c1	-30	-17
CO[C@@H]1CN(C)C(=O)c2cc(NC(=O)c3ccc4c(c3)OCO4)ccc2OC[C@H](C)N(CC2CC2)C[C@H]1C	-7	5
COc1cccc(C(=O)Nc2ccc3c(c2)C(=O)N(C)[C@H]2CC[C@H](CC(=O)NCCCN4CCOCC4)O[C@H]2CO3)c1	2	12

Among those listed so far, 4 have a thiophene ring, fused or not.
SMILES	Vaccinia stage	Vaccinia stage Venus
C[C@@H]1CN([C@H](C)CO)C(=O)c2cc(NC(=O)Nc3ccccc3)ccc2O[C@@H]1CN(C)S(=O)(=O)c1cccs1	11	17
CC(C)NC(=O)N(C)C[C@H]1OCCCC[C@@H](C)Oc2ccc(NS(=O)(=O)c3cccs3)cc2C(=O)N([C@H](C)CO)C[C@H]1C	13	15
C[C@@H]1CN([C@@H](C)CO)C(=O)c2cccc(NS(=O)(=O)c3cccs3)c2O[C@H]1CN(C)Cc1ccccc1	3	2
Cc1ccc(S(=O)(=O)Nc2ccc3c(c2)C(=O)N([C@H](C)CO)C[C@@H](C)[C@@H](CN(C)S(=O)(=O)c2cccs2)O3)cc1	-20	-15

Later entries:
SMILES	Vaccinia stage	Vaccinia stage Venus
C[C@@H]1CN([C@@H](C)CO)C(=O)c2c(c3ccccc3n2C)-c2ccccc2CO[C@H]1CN(C)C(=O)CCC(F)(F)F	-9	-3
C[C@H](CO)N1C[C@H](C)[C@@H](CN(C)C(=O)Nc2ccc(F)cc2)Oc2ccc(NC(=O)CCC(F)(F)F)cc2CC1=O	5	2
CC=Cc1ccc2n(c1=O)C[C@H]1[C@H](CO)[C@@H](C(=O)NCC)[C@@H]2N1C(C)=O (mixture of isomers)	6	3
Cc1noc(C)c1S(=O)(=O)N(C)C[C@H]1Oc2ccc(NS(=O)(=O)c3cn(C)cn3)cc2C(=O)N([C@@H](C)CO)C[C@H]1C	23	18
O=C(CC1CC1)N1CC[C@@H]2[C@H]1c1cc(-c3ccccc3)ccc1N[C@@H]2CO	2	7
COc1ccc(NC(=O)N(C)C[C@H]2Oc3ccc(NS(=O)(=O)c4ccc(OC)cc4)cc3CC(=O)N([C@H](C)CO)C[C@@H]2C)cc1	5	5
COc1ccc(NC(=O)Nc2ccc3c(c2)C(=O)N([C@@H](C)CO)C[C@@H](C)[C@H](CN(C)C(=O)NC(C)C)O3)cc1	-1	2
O=C(C1CC1)N1CC(=O)N2[C@H](CO)[C@@H](c3ccc(C#Cc4cccc(F)c4)cc3)[C@H]2C1	?	·
CC(C)CC#Cc1cnc2c(c1)C(=O)N([C@H](C)CO)C[C@@H](C)[C@H](CN(C)C(=O)Cc1cccnc1)O2	6	12
Cc1ccc(S(=O)(=O)Nc2ccc3c(c2)CC(=O)N([C@H](C)CO)C[C@@H](C)[C@@H](CN(C)C(=O)NC(C)C)O3)cc1	7	6
COc1ccc(S(=O)(=O)Nc2ccc3c(c2)C(=O)N([C@@H](C)CO)C[C@H](C)[C@@H](CN(C)Cc2ccc(C(F)(F)F)cc2)O3)cc1	?	·
COc1cccc(-c2ccc([C@H]3[C@H]4CN(CC5CC5)CCCCN4[C@H]3CO)cc2)c1	-12	-7
C[C@@H]1CN([C@@H](C)CO)S(=O)(=O)c2ccc(C#CCN(C)C)cc2O[C@H]1CN(C)Cc1ccncc1	-1	-3
COc1ccccc1-c1cnc2c(c1)C(=O)N([C@H](C)CO)C[C@H](C)[C@H](CN(C)C(=O)c1ccccc1)O2	9	9
C[C@@H](NC(=O)C[C@H]1C=C[C@@H](NS(=O)(=O)c2cccc(F)c2)[C@H](CO)O1)c1ccccc1	-6	-9
O=C(Nc1ccccc1F)N[C@H]1CC[C@@H](CCNS(=O)(=O)c2ccccc2)O[C@@H]1CO	0	-5
COc1ccc(S(=O)(=O)Nc2ccc3c(c2)CC(=O)N([C@@H](C)CO)C[C@H](C)[C@@H](CN(C)C(=O)NC2CCCCC2)O3)cc1	14	10
C[C@@H]1CN([C@@H](C)CO)C(=O)c2cc(C#CC3CCCC3)cnc2O[C@H]1CN(C)C(=O)Cc1ccccn1	7	0
C/C=C/c1ccc2c(c1)O[C@H](CN(C)C(=O)C1CCOCC1)[C@@H](C)CN([C@H](C)CO)S2(=O)=O	0	1

2 consecutive entries out of the list so far, quoted:
SMILES	Vaccinia stage	Vaccinia stage Venus
COc1ccc(S(=O)(=O)Nc2ccc3c(c2)C(=O)N([C@@H](C)CO)C[C@H](C)[C@@H](CN(C)Cc2ccc(C(F)(F)F)cc2)O3)cc1	?	·
COc1cccc(-c2ccc([C@H]3[C@H]4CN(CC5CC5)CCCCN4[C@H]3CO)cc2)c1	-12	-7

These rows are one share of the data, so the mix of outcomes need not match the whole.
